VDR inhibitor: blocks the human vitamin D receptor; P11473; VDR-SRC2-3 peptide fluorescence polarization, 2 h; Potency, µM, inactives show max response, negative = inhibition, hits mostly inhibitors; 400,000 tested, 0.93% active; AID 504847; active means well fitted inhibition curve with a large enough effect; inconclusive means small, poorly fitted or top-dose-only effect, or another doubt; inactive means no such curve, though single readings can be large or run the other way; further: series mostly up to about 120 µM
Target sequence (P11473 whole entry, looked up): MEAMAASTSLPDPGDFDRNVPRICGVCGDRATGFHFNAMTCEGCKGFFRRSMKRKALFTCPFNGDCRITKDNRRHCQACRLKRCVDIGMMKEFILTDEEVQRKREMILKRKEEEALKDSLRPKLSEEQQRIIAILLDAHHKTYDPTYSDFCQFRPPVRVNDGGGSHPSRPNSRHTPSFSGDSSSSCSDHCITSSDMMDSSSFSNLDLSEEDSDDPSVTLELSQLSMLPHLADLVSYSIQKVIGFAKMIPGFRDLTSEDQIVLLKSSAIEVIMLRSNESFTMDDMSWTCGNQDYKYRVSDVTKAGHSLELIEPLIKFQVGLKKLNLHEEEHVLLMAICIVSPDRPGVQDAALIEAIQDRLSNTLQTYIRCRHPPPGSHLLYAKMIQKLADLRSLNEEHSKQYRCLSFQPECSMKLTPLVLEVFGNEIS
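Inhibition of the VDR/SRC2-3 peptide interaction is quantified by fluorescence polarization. Compounds (23 nl, pintool) incubate with the reagents for 2 hours at ambient room temperature.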
* = called active by the depositor; ? = inconclusive; & = joins results of further samples; [ ] = remark or other dose. On the % scale 0 is the no-effect control and ±100 the full control effect; potency means the concentration at half of the fitted maximal effect. Some of the compounds tested; count on the stated rates, not on these rows.

VDR inhibitor | smiles
-8.8% | O=S(=O)(Nc1cccc2ncccc12)c1cccc(C(F)(F)F)c1
-14.5% | CC(=O)NCCc1ccc(S(=O)(=O)N2CCOCC2)cc1
2.4% | FC(F)(F)COc1ccc(-n2ccnc2)nn1
-5.6% | COc1cccc(C(=O)Nc2nnc(S(=O)(=O)N(C)Cc3ccccc3)s2)c1
-20.0% | COC(=O)c1ccc(NC(=O)CSC2=NC(=O)C(c3ccccc3)C(=O)N2)cc1 (centres undefined)
24.7% | O=C(COc1ccccc1[N+](=O)[O-])Nc1cc(-c2nc3cc(Cl)ccc3o2)ccc1Cl
4.3% | CCOC(=O)c1sc(NC(=O)CS(=O)(=O)c2ccc(C)cc2)nc1C
-5.6% | Cc1c(Cl)c(=O)oc2cc(OCC(=O)NCc3cccs3)ccc12
3.4% | CCn1ccc2c(OCC(=O)Nc3ccccc3C)cccc2c1=O
-10.8% | O=c1c2cccnc2[nH]c(=S)n1CCCN1CCN(c2ccccc2F)CC1
17.9% | Cc1ccc(C(=O)N2CCN(c3ccc(NC(=S)NC(=O)c4cccs4)cc3)CC2)cc1
1.5% | NC(=O)c1nsc(C(=O)N(CC(=O)NCc2ccc(F)cc2)Cc2ccco2)c1N
-3.4% | O=C1Nc2ccccc2/C1=C/c1cnc(-c2ccccc2)[nH]1
1.8% | O=C(NCc1ccco1)C(c1ccccc1)N(C(=O)Cc1cccs1)c1cccnc1 (centres undefined)
-23.8% | CCOC(=O)Nc1ccc2c(c1)Cc1cc([N+](=O)[O-])ccc1-2
3.0% | Cc1cc(Nc2cccc(F)c2)nc(-c2ccccc2O)n1
-24.8% | COc1ccc(-c2nc(NC(=O)C3CC(=O)N(Cc4ccco4)C3)sc2C)cc1 (centres undefined)
-8.6% | CCCCCOc1ccc(C(=O)NC(CCC)C(=O)O)cc1 (centres undefined)
4.7% | CCC(=O)Nc1ccc(NC(=O)Cc2ccccc2)cn1
-1.8% | COc1ccc(C2=NC(c3ccncc3)=Nc3ccc(Br)cc3N2)cc1
7.3% | O=C(Nc1ccc(F)cc1F)C1CCN(S(=O)(=O)c2ccc3[nH]c(=O)ccc3c2)CC1
9.3% | Cc1nc(Cc2nnc(SCC(=O)N3CC(=O)Nc4ccccc43)o2)cs1
-15.9% | Cc1cc(OC(C)C(=O)NCc2cccnc2)c2c(C)cc(=O)oc2c1 (centres undefined)
3.2% | O=C(O)CCCN=C1CCCc2ccccc2N1
-1.4% | Cc1ccc(OCC(=O)c2cc(C)n(-c3ccccc3)c2C)c([N+](=O)[O-])n1
20.7% | COc1cccc(/C=N/n2c(=S)n(C)c3cc(C)c(C)cc32)c1OC
-18.2% | NC(=O)/C(=C/c1ccco1)C(N)=S
1.9% | O=C(NCc1ccc(F)cc1)C1C2C=CC3(CN(Cc4cccnc4)C(=O)C13)O2 (centres undefined)
-12.6% | CCOc1cc(-c2nc(-c3ccc(C)nc3OCC)no2)cc(OCC)c1OCC
10.5% | O=S(=O)(Cc1ccccc1)NCC1CCCN(Cc2ccc(F)c(F)c2)C1 (centres undefined)
-22.3% | Cn1nc(C(=O)OCc2ccc(F)cc2)c2ccccc2c1=O
50.1µM* | Cc1ccc(NC(=S)NNC(=S)NCc2ccccc2)cc1
-13.2% | Cc1ccc2nc(-c3ccc(Cl)c(NC(=O)COc4cccc(C)c4C)c3)oc2c1
-12.8% | O=C(c1ccccc1)c1ccc(N2CCOCC2)cc1
3.2% | Cc1csc(N(C(=O)c2ccc(S(=O)(=O)N(C)C)cc2)c2ccccc2)n1
-0.3% | CCCC(=O)c1c[nH]c(C(=O)NCc2ccco2)c1
17.7% | C=C1SC(Nc2c(C)cccc2C)=NC12CCCCC2
-3.0% | CCN1CCN(C(=O)Nc2cccc3ccccc23)CC1
-10.4% | O=c1[nH]c2ccc(S(=O)(=O)NCc3ccccn3)cc2s1
4.0% | COc1cccc(CC(=O)Nc2ccc(S(=O)(=O)N3CCOCC3)cc2)c1
-1.7% | CCN(C(=O)c1c(C)cc(=O)oc1C)c1ccc2c(c1)OCO2
-17.7% | c1ccc2c(CNn3cnnc3)cccc2c1
-5.1% | O=C(COc1ccc(Cl)cc1)NCCCn1ccnc1
-4.4% | COc1ccc(NC(=O)CC2C(=O)N(c3ccc(C)cc3)C(=O)N2CCc2ccccc2)cc1 (centres undefined)
30.8%[activator] | O=CN1CCN(C(=O)c2cccc3c2-c2ccccc2C3=O)CC1
-25.2% | O=C(Nc1ccc(-c2cn3ccccc3n2)cc1)c1ccco1
-3.0% | CCn1c(=O)c(C(=O)NCc2ccc(F)cc2)c(O)c2ccccc21
4.6% | Cc1ccc(C(=O)N2CCc3cc(CNS(=O)(=O)c4cccs4)ccc32)cc1
-3.2% | O=C(Nc1ccccc1)N1CCN(c2cccc(C(F)(F)F)c2)CC1
-15.1% | CCN=c1scc(C)n1/N=C/c1cc(Br)c(O)c(Br)c1
? | C#CCOc1ccc(/C=C2/C(=O)NN(c3ccccc3)C2=O)cc1OC
23.8% | COc1ccccc1-c1nnc(N)s1
26.8% | CC(=O)OC[C@H]1COc2ccc3ccccc3c2[C@H]1N(C)C(C)=O
5.2% | CC1CCCN(c2cc3c(cc2F)c(=O)c(S(=O)(=O)c2cccc(Cl)c2)cn3C)C1 (centres undefined)
2.3% | CCN1CCCn2c1nc1c2c(=O)n(C)c(=O)n1C
-15.2% | Cn1c(=O)[nH]c(=O)c2c1nc(NCCCO)n2CCOc1ccccc1
0.6% | O=C(NCc1cccnc1)c1cnc2sccn2c1=O
13.8% | CCOc1ccc(-n2cnnn2)cc1S(=O)(=O)NCc1ccccc1
-17.9% | O=C(NCCc1c[nH]c2ccccc12)c1ccc2c(c1)OCO2
8.6% | Cc1ccc(-n2nnc3c(=O)n(Cc4ccccn4)cnc32)cc1C

Later entries
VDR inhibitor | smiles
-14.4% | COCCn1c(=O)c(-c2ccccc2)nc2cnc(Nc3cccc(OC)c3)nc21
-6.0% | CCCN(CCC)CCNS(=O)(=O)c1ccc2c(c1)oc(=O)n2C
-7.9% | CCC(Oc1ccc2c(c1)C(=O)CC(C)(C)O2)C(=O)NCCN1CCCCCC1 (centres undefined)
-2.8% | CC(=O)c1c(O)c(C)c(O)c2c1OC1=CC(=O)C(C(C)=O)C(=O)C12C (centres undefined)
-14.2% | CNC(=S)N/N=C/c1cn(Cc2c(F)cccc2Cl)c2ccccc12
19.6% | Cc1cc(-n2[nH]c(C)c(C)c2=O)nc(-c2ccccc2O)n1
-5.8% | COc1ccc(COC(=O)Nc2c(SC)nsc2SC)cc1
3.9% | Cc1nn(C)c(C(=O)NNC(=O)Nc2cccc(C(F)(F)F)c2)c1Cl
-15.9% | Cc1ccc(O)c(NC(=O)CSc2n[nH]c(-c3ccccc3)n2)c1
1.5% | CCc1nc(C)cn1S(=O)(=O)c1ccc(Br)cc1
0.0% | CC(C)(C)NC(=O)Cn1c(SCC(=O)N2CCCCCC2)nc2ccccc21
0.7% | Cc1cccc(NC(=O)c2ccc3nc(C(C)C)oc3c2)c1C
3.5% | COc1ccc(OC)c(N(C(=O)c2ccco2)C(C(=O)NC2CCCC2)c2cc(OC)c(OC)c(OC)c2)c1 (centres undefined)
14.4% | CCCc1nnc(NC(=O)C(C)N2C(=O)C3C4C=CC(C4)C3C2=O)s1 (centres undefined)
7.4% | NC(=O)C1CCN(c2oc(-c3ccc(F)cc3)nc2S(=O)(=O)c2ccccc2)CC1
-17.0% | CC(C)CCn1c(=O)c2ccccc2n2c(CCC(=O)NCC3CCCO3)nnc12 (centres undefined)
-7.7% | Brc1ccc(-c2nnc3n2CCCCC3)cc1
5.1% | NC(=O)CSc1nc(-c2ccccc2)nc2c1CCCC2
-6.5% | CCOC(=O)c1ccc(NC(=O)NCCN2CCCCC2)cc1
2.4% | COc1ccccc1N(CC(O)Cn1ccnc1C)S(=O)(=O)c1ccc(C)cc1 (centres undefined)
4.0% | CCN(C(=O)C(C)N1C(=O)/C(=C/c2ccco2)SC1=S)C1CCS(=O)(=O)C1 (centres undefined)
16.8% | O=S(=O)(NC1Cc2ccccc2C1)c1ccccc1
-1.9% | COC(=O)c1c(NC(NC(=O)CC(C)C)C(Cl)(Cl)Cl)sc2c1CCC2 (centres undefined)
5.2% | Nn1c(SCC(=O)NC2CCCCC2)nnc1-c1ccc(Cl)cc1
-2.6% | COc1ccc(S(=O)(=O)NCc2cccs2)cc1
15.3% | Cc1ccc2cc(CN(CCCO)S(=O)(=O)c3cccc4nsnc34)c(=O)[nH]c2c1
-3.6% | COC(=O)CCCNC(=O)c1ccccn1
-0.8% | Cc1nn(Cc2cccc(F)c2)c(C)c1NC(=O)c1c([N+](=O)[O-])c(C)nn1C
-27.1% | Cc1cc(Oc2nc3ccccn3c(=O)c2/C=C(\C#N)c2nc3ccccc3s2)ccc1Cl
-5.4% | CCOc1ccccc1NC(=O)c1cc(Cl)ccc1NC(=O)c1ccco1
-4.4% | Oc1ccccc1/C=N/Nc1ncc(Br)cn1
-7.0% | COc1ccc(-c2oc3ccccc3c(=O)c2OC(=O)c2ccc(C)cc2)cc1
11.9% | CCCC(=O)NC(=S)Nc1cccc(-c2nc3ncccc3o2)c1
-8.6% | CNC(=S)NNC(=O)c1ccccc1Br
-2.4% | CN(C(=O)CN1C(=O)NC(C)(c2cccc(Br)c2)C1=O)C1CCCCC1 (centres undefined)
13.4% | CC(C)COc1ccc(N)cc1OCC(C)C
7.0% | CC(=O)OCC(=O)C1CCC2C3CC=C4CC(O)CC[C@@]4(C)C3CC[C@]12C (some centres undefined)
-0.6% | CCOc1ccc2nc(N3CCC(C(=O)Nc4ccc(Br)cc4F)CC3)sc2c1
-16.3% | Cc1cc(C)cc(C(=O)NC(CC(N)=O)c2ccc(N3CCN(C)CC3)c([N+](=O)[O-])c2)c1 (centres undefined)
20.6% | CCOC(=O)c1sc2ccccc2c1S(=O)(=O)N1CCN(c2cc(C)ccc2C)CC1
5.2% | Cc1cccc(NC(=O)COc2ccccc2C(=O)NC(C)c2ccccc2)c1 (centres undefined)
10.5% | COC(=O)Nc1ccc(S(=O)(=O)N2CCCCCC2)cc1
7.9% | Cc1ccc(C(C)(C)NC(=O)C2CCC(=O)N(Cc3ccccc3F)C2)cc1 (centres undefined)
9.2% | CCN(CC)S(=O)(=O)N1CCC(C(=O)NCCN2CCOCC2)CC1
-6.5% | COc1cccc(C(=O)c2ncc(C(F)(F)F)cc2Cl)c1

Random excerpt: six records from the list, in no set order.
VDR inhibitor | smiles
11.9% | CCCC(=O)NC(=S)Nc1cccc(-c2nc3ncccc3o2)c1
9.2% | CCN(CC)S(=O)(=O)N1CCC(C(=O)NCCN2CCOCC2)CC1
-6.5% | COc1cccc(C(=O)c2ncc(C(F)(F)F)cc2Cl)c1
-8.6% | CNC(=S)NNC(=O)c1ccccc1Br
20.6% | CCOC(=O)c1sc2ccccc2c1S(=O)(=O)N1CCN(c2cc(C)ccc2C)CC1
-4.4% | Oc1ccccc1/C=N/Nc1ncc(Br)cn1

Next section:
VDR inhibitor | smiles
7.3% | Cc1ccc(CCNC(=O)Cn2c(-c3cccs3)cc3ccccc32)cc1
-7.9% | Clc1cccc(Cl)c1/C=N/Nc1c(Cl)cncc1Cl
-6.8% | Cc1cc(OCCCC(=O)NCCc2nnc3ccccn23)ccc1Cl
25.1µM* | O=C1Nc2ccc(Br)cc2C1=Nc1cccnc1
-0.4% | Cc1cc(N2CCN(C)CC2)nc(-c2ccccc2O)n1
6.8% | CCC(C(=O)NCCc1ccccc1)n1nc(C)c2sc3ccccc3c2c1=O (centres undefined)
-1.7% | Cc1ccc(C(c2nnnn2CS(=O)(=O)c2ccc(C)cc2)N2CCN(c3ncccn3)CC2)cc1 (centres undefined)
-9.4% | NC(=O)c1cc(S(=O)(=O)N2CC=C(c3ccccc3)CC2)cs1
-11.2% | O=C(CCC1CCCCC1)Nc1c2c(nn1-c1ccc(F)cc1)CS(=O)(=O)C2
-9.7% | CCc1cccc(NC(=O)C2CCCN(c3ncnc4c3nc3n4CCCCC3)C2)c1 (centres undefined)
-26.4% | COc1ccc(S(=O)(=O)N2CCN(C(=O)c3c(C)nn(-c4ccccc4)c3C)CC2)cc1
8.0% | O=C(Cc1ccccc1)Nc1ccnn1C1CCN(Cc2nccs2)CC1
1.6% | CC(/C=N/Nc1nc(N2CCCCC2)nc(N2CCCCC2)n1)=C\c1ccccc1
-6.3% | C=CCN1C(=O)C(CC(=O)O)SC1=Nc1ccc(C)cc1 (centres undefined)
-26.6% | COc1cc(C(=O)OCC(=O)N2CCN(S(=O)(=O)c3ccc(C)cc3C)CC2)c([N+](=O)[O-])cc1OC
-15.6%&146.4% | O=C(Nc1ccc(F)cc1F)c1cc(-c2ccc3c(c2)OCO3)on1
-8.7% | O=C(c1cccc(Br)c1)N1CCN(S(=O)(=O)N2CCCCCC2)CC1
-9.7% | CCOc1ccc(NC(=O)NCC2CCN(Cc3ccc(F)cc3)CC2)cc1
-17.9% | CCCc1cc(=O)oc2cc(C)cc(OC(C)C(=O)NCc3cccnc3)c12 (centres undefined)
-16.7% | CCOC(=O)/C=C/C(=O)Nc1ccc(-c2nnc3n2CCCCC3)cc1
-6.9% | Cn1c(CC(=O)Nc2ccc(F)cc2)c(Sc2ccccc2)c2ccccc21
3.1% | COc1ccc(C2C(C(N)=O)=C(C)Nc3nc(-c4ccccc4OC)nn32)cc1OC (centres undefined)

Reformatted: entries from further up.
molecule	VDR inhibitor
CCOc1ccc(NC(=O)NCC2CCN(Cc3ccc(F)cc3)CC2)cc1	-9.7%
CCCc1cc(=O)oc2cc(C)cc(OC(C)C(=O)NCc3cccnc3)c12 (centres undefined)	-17.9%
CCOC(=O)/C=C/C(=O)Nc1ccc(-c2nnc3n2CCCCC3)cc1	-16.7%

From PubChem
